Compound activity from PubChem BioAssay.
VDR inh: inhibitors of human vitamin D receptor. P11473. VDR-SRC2-3 peptide fluorescence polarization, 2 h. Potency, µM, without a hit: max response, negative = inhibition, actives largely listed as inhibitors. hit rate 0.93% among 400,000. AID 504847; active = well fitted inhibition curve with a large enough effect; inconclusive = small, poorly fitted or top-dose-only effect, or another doubt; inactive = no such curve, though single readings can be large or run the other way; also: series mostly up to about 120 µM
Target sequence (P11473 whole entry, looked up): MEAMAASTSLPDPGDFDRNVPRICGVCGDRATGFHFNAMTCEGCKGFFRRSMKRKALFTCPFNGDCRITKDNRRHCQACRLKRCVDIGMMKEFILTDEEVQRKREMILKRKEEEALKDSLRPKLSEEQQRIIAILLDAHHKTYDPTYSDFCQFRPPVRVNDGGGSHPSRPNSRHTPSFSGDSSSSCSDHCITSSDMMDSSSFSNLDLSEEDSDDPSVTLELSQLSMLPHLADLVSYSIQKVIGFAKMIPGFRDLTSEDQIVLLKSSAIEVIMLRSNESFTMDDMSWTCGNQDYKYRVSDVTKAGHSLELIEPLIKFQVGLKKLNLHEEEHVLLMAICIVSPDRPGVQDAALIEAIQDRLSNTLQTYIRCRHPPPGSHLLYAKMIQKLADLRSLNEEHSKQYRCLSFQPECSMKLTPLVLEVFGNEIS
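The screen uses fluorescence polarization to detect compounds that interfere with recruitment of the SRC2-3 coactivator peptide to VDR; plates are read after 2 h at room temperature.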
* hit, by the source's call; u = inconclusive; & = joins results of further samples. % is scaled to controls: 0 for no effect and ±100 for the full control effect; potency is read from the fitted curve at half-maximal effect. Only part of the results is shown. The share of hits here may be higher or lower than overall.

| SMILES | VDR inh |
| --- | --- |
| CCOc1ccc(C(=S)NC2CCCCC2)cc1 | -15.6% |
| Nc1nnc(-c2ccc(Cl)c([N+](=O)[O-])c2)s1 | -1.7% |
| S=C(NCC1COc2ccccc2O1)Nc1ccccc1 (stereo not drawn) | 0.4% |
| CCc1ccc2oc(C(=O)N3CCN(c4ccccc4OC)CC3)cc(=O)c2c1 | -16.3% |
| COc1cc(/C=N/NC(=O)c2ccc(CSc3nc4ccccc4[nH]3)cc2)cc(OC)c1OC | -16.3% |
| Cc1ccc(S(=O)(=O)N2CC(C(=O)O)=CC[C@H]2c2ccc(Cl)cc2)cc1 | -22.7% |
| Cc1ccc(S(=O)(=O)NN=C2C3CC4CC(C3)CC2C4)cc1 | 2.0% |
| COc1cc(/C=C\C(=O)NCc2ccc3[nH]c(C)cc3c2)cc(OC)c1OC | -10.1% |
| CCOc1cccc(C2NC(=S)NC(C)=C2C(=O)Nc2ccccc2)c1 (stereo not drawn) | -21.3% |
| CCCCCCc1c(O)nc(SCCN(C)C)[nH]c1=O | 23.8% |
| O=C(CSc1nnc(-c2ccccc2)c(-c2ccccc2)n1)NCC1CCCO1 (stereo not drawn) | -10.1% |
| NS(=O)(=O)c1ccc(NC(=O)CSc2ccc3ccccc3n2)cc1 | 10.2%&-3.0% |
| CC(=O)c1cccc(NC(=O)/C(=C\c2ccco2)NC(=O)c2cccs2)c1 | -1.4% |
| O=C(O)CCn1c(SCc2cccc3ccccc23)nc2ccccc21 | 11.1% |
| CC(C)(C)OC(=O)N1CCC(CC2CC(c3cccc(Br)c3)=NO2)(C(=O)NCC2CCCCC2)CC1 (stereo not drawn) | -2.0% |
| COc1ccc(/C=N/NC(=O)c2cnccn2)cc1O | 10.3% |
| CCOC(=O)c1ccc(NC(=O)N2CCN(C(=O)c3ccco3)CC2)cc1 | -6.3% |
| COc1ccc(N=C2SC(CC(=O)Nc3ccccc3)C(=O)N2Cc2ccccn2)cc1 (stereo not drawn) | -12.0% |
| CN(C(=O)CSc1nnc(-c2ccncc2)n1C)C1CCS(=O)(=O)C1 (stereo not drawn) | 7.8% |
| CCOC(=O)c1c(C)n(-c2ccccc2)c2ccc(OCCN(C)C)cc12 | 3.0% |
| COc1ccc(CNC(=O)C2(C)Cc3ccccc3C(=O)O2)cc1 (stereo not drawn) | -9.6% |
| COc1ccccc1C#Cc1ccc2c(=O)c3ccccc3n(C)c2c1 | -10.5% |
| COc1ccc(C)cc1NC(=O)c1nnn(Cc2cccc(Br)c2)c1N | -3.6% |
| CCOc1ccc(NC(=O)c2ccc(NC(=O)c3ccc(CN4CCOCC4)cc3)cc2)cc1 | 1.2% |
| CCCCCCCCCCCCCCCCCCNc1ccn(C2OC(COP(=O)(O)OCC3OC(n4cc(F)c(=O)[nH]c4=O)CC3O)C(O)C2O)c(=O)n1 (stereo not drawn) | u |
| COc1ccc(CC(=O)Nc2ccncc2Cl)cc1 | 3.7% |
| c1ccc(CCN2CN=C(Nc3nc4ccccc4o3)NC2)cc1 | -4.1% |
| COc1ccc(NC(=O)CSc2nnc(NC(=O)C3CCC3)s2)cc1 | 0.8% |
| N#C/C(N=Nc1ccccc1O)=N\Nc1ccccc1O | u |
| Fc1ccccc1-c1cc2cc3c(cc2cn1)OCO3 | -5.6% |

Another view of some results above:
VDR inh,smiles
10.3%,COc1ccc(/C=N/NC(=O)c2cnccn2)cc1O
-6.3%,CCOC(=O)c1ccc(NC(=O)N2CCN(C(=O)c3ccco3)CC2)cc1
-12.0%,COc1ccc(N=C2SC(CC(=O)Nc3ccccc3)C(=O)N2Cc2ccccn2)cc1 (stereo not drawn)

Next part
| SMILES | VDR inh |
| --- | --- |
| CCOc1ccc(NC(=O)COC(=O)Cn2cnc3ccccc32)cc1 | -12.6% |
| CCOC(=O)Cc1csc(SCC(=O)Nc2cc(C)ccc2OC)n1 | -17.8% |
| Cc1ccc(C(=O)CSc2nnc3ccccn23)c(C)c1 | 14.7% |
| O=C(CS(=O)(=O)c1cn(CC(=O)N2CCOCC2)c2ccccc12)NCc1ccccc1 | -7.7% |
| CC(C)c1nc(C(=O)N2CCCC(N3CCN(c4cccc(Cl)c4)CC3)C2)cs1 (stereo not drawn) | 0.2% |
| COCCN(C(=O)Cc1cccs1)C(C(=O)NCc1ccc(OC)cc1)c1ccc(OC)cc1 (stereo not drawn) | -10.1% |
| O=C(NCCCN1CCOCC1)c1onc(CSc2ccccc2)c1C(=O)NCCCN1CCOCC1 | -12.1% |
| COc1cc(C(=O)NCC(=O)OCn2nnc3ccccc3c2=O)cc(OC)c1OC | -7.2% |
| CN(Cc1ccccc1)C(=O)c1ccc(NC(=O)Cc2cccc(NC(=O)C3CCCN(C(=O)C4CCCCC4)C3)c2)cc1 (stereo not drawn) | -10.3% |
| C=CCSc1nnc2c(n1)OC=Nc1ccccc1-2 | 0.5% |
| COc1cccc(/C=C(/C(=O)OCC(=O)NC2CCCC(C)C2C)c2ccccc2)c1 (stereo not drawn) | -5.6% |
| Cc1ccc(N2C(=O)N3[C@H]4c5ccccc5OC[C@@H]4[C@@H](c4ccccc4)[C@@]3(C)C2=O)cc1 | 1.5% |
| N#Cc1ccccc1S(=O)(=O)N1CCC(Oc2ccc(-n3cnnn3)cc2)CC1 | -1.1% |
| CCOC(=O)CSC1=C(C#N)C(c2ccc(C)s2)CC(=O)N1 (stereo not drawn) | 8.2% |
| CCOc1ccc(-c2nn3c(-c4cc(-c5ccccc5)n[nH]4)nnc3s2)cc1 | -12.1%&6.4% |
| CCN(CC(=O)Nc1ccc(NC(C)=O)cc1)C(=O)Cc1c(Cl)cccc1Cl | -17.6% |
| Cc1ccc(CS(=O)(=O)CCC(=O)NCCCN2CCCC2=O)cc1 | 1.0% |
| CCOc1cccc(N(C(=O)c2ccco2)C(C(=O)NC2CCCC2)c2cccnc2)c1 (stereo not drawn) | 0.7% |
| CCN1CCc2c(sc(N)c2C#N)C1 | -7.3% |
| CCOC(=O)/C(=N\Nc1ncnc2ccccc12)c1ccc(C)cc1 | 19.3% |
| Cc1cc(C(=O)CN2C(=O)NC3(CCC(C)CC3)C2=O)c(C)n1C (stereo not drawn) | u |
| Clc1ccc(OCc2nnc(-c3ccccc3Br)o2)c(Cl)c1 | -10.5% |
| CCOCC(=O)N1CCN(c2ccc(F)cc2)CC1 | 10.3% |
| Cc1cccc(Nc2c([N+](=O)[O-])c(=O)n(C)c3ccccc23)c1 | u |
| C=CCN(CC=C)C(=S)NC(=O)c1ccc([N+](=O)[O-])cc1 | u |
| COc1ccc(N(CC(=O)NCCc2ccccc2)S(=O)(=O)c2ccc(OC)c(OC)c2)cc1 | -3.9% |
| Cc1oc(-c2ccc(Cl)cc2)nc1CN1CCCC(C(=O)NCc2ccccn2)C1 (stereo not drawn) | 3.4% |
| COc1ccc(C2c3cc(OC)c(OC)cc3CCN2C(=O)c2ccccc2Br)cc1OC (stereo not drawn) | 5.6% |
| CC(O)c1cccc(-c2ccc(CN3C[C@]4(CO)O[C@@H](CO)C[C@@H]4S3(=O)=O)cc2)c1 (stereo partly drawn) | u |
| COc1ccc(CNc2ncnc3ccc(-c4cccnc4)cc23)c(OC)c1 | -11.9% |
| O=C(O)c1cccc(-c2ccc(/C=C3/SC(=Nc4ccccc4)N(Cc4cccnc4)C3=O)o2)c1 | -13.3% |
| COc1ccc2c(CC(=O)Nc3ccccc3OC)coc2c1 | -1.3% |
| Cc1ccc(S(=O)(=O)N2CCN(C(=O)c3ccco3)CC2)c(C)c1 | 8.8% |
| O=C(COc1ccc(Cl)cc1)NCc1nnc(SCC(=O)N2CCCCCC2)o1 | -8.7% |
| COc1cc(C(=S)N2CCOCC2)cc(OC)c1OC(=O)c1cc([N+](=O)[O-])cc([N+](=O)[O-])c1 | -18.9% |
| COC(=O)c1ccccc1NC(=O)c1sc(Cl)nc1C | -22.5% |
| COc1cc(CN2CCC(C(=O)N3CCC(C)CC3)CC2)cc(Br)c1O | -12.4% |
| CC(C)(C)C(=O)Nc1ccc(-c2csnn2)cc1 | -3.6% |
| O=C(CSc1nnc(CNc2ccc(F)cc2)n1Cc1ccccc1)NCc1ccccc1 | 2.2% |
| O=C(Cn1c2ccccc2c(=O)c2cc([N+](=O)[O-])ccc21)Nc1ccccc1Cl | -5.1% |
| O=C(Nc1ccno1)Nc1ccc(Cl)cc1Cl | 7.0% |
| COc1ccc(/C=N/NC(=O)c2ccco2)cc1OCc1ccccc1 | -18.6% |
| Cc1ccnc2nc(C(=O)OCCOc3cccc(Br)c3)nn12 | -5.9% |
| COc1ccc(Cn2nnnc2C(c2ccccc2)N2CCN(c3ccccc3)CC2)cc1 (stereo not drawn) | 5.0% |
| CC(CN1CCOCC1)OC(=O)c1ccccc1 (stereo not drawn) | -14.7% |

3 of the entries above in order of their number in VDR inh, ascending.
| SMILES | VDR inh |
| --- | --- |
| O=C(COc1ccc(Cl)cc1)NCc1nnc(SCC(=O)N2CCCCCC2)o1 | -8.7% |
| COc1ccc(C)cc1NC(=O)c1nnn(Cc2cccc(Br)c2)c1N | -3.6% |
| Cc1ccc(C(=O)CSc2nnc3ccccn23)c(C)c1 | 14.7% |

Remaining list, next part
| SMILES | VDR inh |
| --- | --- |
| COC(=O)c1sc2nc(CSc3ccc(Br)cc3)[nH]c(=O)c2c1C | -5.3% |
| Cc1ccc(-c2ccc(=O)n(C(C)C(=O)Nc3ccccc3Cl)n2)cc1C (stereo not drawn) | 6.0% |
| CC(NS(=O)(=O)c1ccc(Br)cc1)C(=O)NCc1ccc2c(c1)OCO2 (stereo not drawn) | 1.1% |
| Cc1cc(OCCn2cnc3ccccc3c2=O)cc(C(C)C)c1 | -29.7% |
| Cc1ccccc1-c1nc(CN2CCC(C(=O)NC3CCCCC3)CC2)c(C)o1 | -11.0% |
| CC(C)[C@H](CN(N=O)[C@@H](Cc1ccccc1)CN(C)N=O)N(CCc1ccccc1)N=O | -8.8% |
| N#C/C(=C\c1ccc(OCCN2CCOCC2)cc1)C(=O)Nc1ccccc1 | 20.9% |
| CCC1=C(OC(=O)N(CC)CC)N2C(=O)OC(=NCCc3c[nH]c4ccccc34)[C@]2(C)[C@H]2C1=CC[C@H]1C(=O)N(CC(=O)OC)C(=O)[C@H]12 | -28.7% |
| Cc1ccc(/C=C2\OC(=O)c3ccccc32)cc1 | -12.3% |
| Cc1nnsc1NC(=O)OCCCl | -1.2% |
| CC(=O)c1cccc(NC(=O)CSc2ccc(-c3ccc4c(c3)OCO4)nn2)c1 | 2.9% |
| O=C(CN1C(=O)NC2(CCCCCC2)C1=O)N1CCN(c2ccc(F)cc2)CC1 | 3.3% |
| COC(=O)CCN(c1ccccc1)S(=O)(=O)c1cc(-c2cc(C)no2)ccc1OC | -6.5%&10.2% |
| Cc1c(OCC(=O)OC(C)(C)C)ccc2c3c(c(=O)oc12)CCC3 | -16.3% |
| COc1cc2c(cc1OC)CN(C(=O)c1ccc(S(=O)(=O)N3CCCCCC3)cc1)CC2 | 13.0% |
| O=C(CCCNS(=O)(=O)c1ccccc1)NCc1ccco1 | 9.9% |
| COc1ccccc1-c1c(NC(=O)c2ccco2)n(C)c2ccccc2c1=O | 4.5% |
| C/C(=N\NC(=O)c1c[nH]c2ccccc12)c1ccc(C)o1 | -0.6% |
| CCCC(=O)OCCNc1cc(Sc2nccn2C)c2nonc2c1[N+](=O)[O-] | 50.1µM* |
| COc1ccccc1N1CCN(C(=O)C2CCCO2)CC1 (stereo not drawn) | -1.9% |
| O=C(NCc1ccccc1F)Nc1ccc([N+](=O)[O-])cc1 | -3.1% |
| O=C(Oc1ccc2ccccc2c1)c1ccccc1 | 13.9% |
| CCC(C)c1ccccc1NC(=O)COc1ccc(-n2cnnn2)cc1 (stereo not drawn) | 14.1% |
| CCOC(=O)c1cnn2c1[nH]c(=O)c1ccccc12 | 7.6% |
| CCCOc1cccc(C2C(C(=O)c3ccc(C)o3)=C(O)C(=O)N2CCN2CCOCC2)c1 (stereo not drawn) | -6.3% |
| Oc1ccc[n+](CCCCC[n+]2cccc(O)c2)c1 | -3.1% |
| Cc1ccc(S(=O)(=O)C(C#N)c2nc3ccccc3nc2N2CCN(C)CC2)cc1C (stereo not drawn) | 19.3% |
| COc1ccc(N2C(=O)CC(NCc3ccc(F)cc3)C2=O)cc1 (stereo not drawn) | 13.5% |
| Cc1cc(C(=O)OCC(=O)Nc2cc(Cl)ccc2C)c(C)o1 | -21.7% |
| CCOc1ccccc1CNC(=O)c1nc(-c2ccc(Cl)cc2)n2c1CCCCC2 | -9.9% |
| CCc1cccc(NC(c2nnc(-c3ccccc3)o2)c2ccc(F)cc2Cl)c1 (stereo not drawn) | 5.9% |
| c1ccc2c(c1)nc(NCCN1CCOCC1)c1nncn12 | 0.1% |
| CC1Cc2ccccc2N1CC(=O)NCc1ccccc1Cl (stereo not drawn) | -10.7% |
| O=C(O)C1CCCCC1C(=O)Nc1ccccc1C(=O)N1CCN(c2ccc(F)cc2)CC1 (stereo not drawn) | -5.1% |
| CC1CN(C(=O)Nc2cccc(Cl)c2)C2(CCCCCC2)O1 (stereo not drawn) | -0.3% |
| COCCCNC(=O)CN1C(=O)COc2ccc(S(=O)(=O)N3CCCC3)cc21 | -13.9% |
| O=c1[nH]c2ccccc2nc1-c1c[nH]c2ccccc12 | 1.8% |
| COc1ccc(Nc2cc(C(=O)NCCCN(C)c3ccccc3)c3ccccc3n2)c(OC)c1 | 14.1% |
| O=C(NCCc1ccccn1)c1ccc(OC(F)F)cc1 | -0.9% |
| CC(=O)Nc1ccc(S(=O)(=O)NC2(C(F)(F)F)C(=O)Nc3c2c(=O)[nH]c(=O)n3Cc2ccco2)cc1 (stereo not drawn) | 0.0% |
| CCOC(=O)C1(C(=O)OCC)NC(=O)CC1CC (stereo not drawn) | 4.0% |
| CC(=O)Nc1cccc(N(C)C)c1 | 0.9% |
| O=C(COC(=O)/C=C/c1ccc(OC(F)F)cc1)NCc1cccs1 | 7.6% |
| COc1ccc2c(c1OC)C(=O)OC2 | 5.9% |
